# Assay outcomes: PubChem, National Center for Advancing Translational Sciences (NCATS)
# SARS PLP yeast: SARS-CoV PLP inhibition in yeast | 0.19% of 330,000 active | S. cerevisiae expressing SARS-CoV PLpro, growth rescue; control for the full effect not named in the record | AID 485353 | Potency, µM (doses to about 32.9 µM), without a hit: top-dose activity, positive = growth rescue; active means well fitted rising curve with a large enough effect; inconclusive means small, poorly fitted or top-dose-only effect; inactive means no such curve, though single readings can be large or run the other way; also: 0% is about no effect; nearly all actives have a fitted effect of over 55% in size; growth read by luminescence after 48 h
# RE007 growth inh: less growth of the S. pombe RE007 Vpr strain. 0.21% of 360,000 active. Potency, µM (series often up to 92.2 µM), for inactives: at the highest dose activity change, negative = less growth. S. pombe RE007 Vpr strain, BacTiter-Glo ATP luminescence, 24 h; control for the full effect not named in the record. AID 651644; active = well fitted falling curve with a large enough effect; inconclusive = small, poorly fitted or top-dose-only effect; inactive = no such curve, though single readings can be large or run the other way;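 also: % is scaled to controls: 0 for no effect and ±100 for the full control effect; nearly all actives have a fitted effect of over 50% in size; the assay follows cell death caused by Vpr and the record does not say whether a fall means rescue or toxicity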
#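 Fission yeast RE007 carrying one integrated HIV-1 vpr copy, seeded at OD 0.01 in PMG+AL medium with 23 nL pinned compound. Grown 24 h at 30 degrees; viability read by BacTiter-Glo luminescence after 5 min.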
# Marburg entry inh: Marburg virus entry inhibition; Marburg virus pseudotyped entry inhibition, cell reporter; control for the full effect not named in the record; about a third of the inactives were read at about 46 µM; 1.8% of 300,000 active; Potency, µM (top dose mostly 37.8 µM), without a hit: top-dose activity change, negative = inhibition, actives largely listed as inhibitors; active = well fitted inhibition curve with a large enough effect; inconclusive = small, poorly fitted or top-dose-only effect, or effect the other way; inactive = flat fitted curve, though single readings scatter; tested in HEK293 cells; about a fifth of its hits are not listed in these tables; also: % is scaled to controls: 0 for no effect and ±100 for the full control effect; luciferase read-out
# NS1 inh: influenza NS1 inhibition. Potency, µM (highest dose often 46.1 µM), for inactives: top-dose activity, positive = more growth. S. cerevisiae slowed by influenza A NS1, growth recovery by OD600. 0.4% of 270,000 active. AID 2326; active means well fitted rising curve with a large enough effect; inconclusive means small, poorly fitted or top-dose-only effect; inactive means no such curve, though single readings can be large or run the other way; also: nearly all actives have a fitted effect of over 50% in size
#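 Read-out: OD600 growth recovery of NS1-expressing budding yeast. Cells grown overnight at 30C in -URA glucose medium, washed, resuspended and diluted 1:100 in 2% galactose assay medium, pH 6.0. Same strain lacking NS1 served as positive control.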
# 2A StopGo: lowers the luciferase signal of an FMDV 2A StopGo reporter; Potency, µM (titrated, usually from 57.9 µM), for the others: at the top dose signal change, negative = less light; human cells with a luciferase reporter of 2A StopGo recoding; control for the full effect not named in the record; 1.2% of 410,000 active; active = well fitted falling curve with a large enough effect; inconclusive = small, poorly fitted or top-dose-only effect; inactive = no such curve, though single readings can be large or run the other way; tested in HEK293T cells; also: % is scaled to controls: 0 for no effect and ±100 for the full control effect; nearly all actives have a fitted effect of over 45% in size; luciferase light after 4 h
# Cruzain inh Det: inhibitors of Trypanosoma cruzi cruzain with detergent | purified cruzain, Z-FR-AMC fluorescence, 0.01% Triton | P25779 | 0.43% of 200,000 active | AID 1478 | Potency, µM, without a hit: max response, negative = inhibition, usual class: inhibitors;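 also: plate controls were neutral wells for no effect and buffer without enzyme for full effect; nearly all actives have a fitted effect of over 40% in size; top concentration of the series not given in the record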
# Target sequence (P25779 123-467 limits assumed): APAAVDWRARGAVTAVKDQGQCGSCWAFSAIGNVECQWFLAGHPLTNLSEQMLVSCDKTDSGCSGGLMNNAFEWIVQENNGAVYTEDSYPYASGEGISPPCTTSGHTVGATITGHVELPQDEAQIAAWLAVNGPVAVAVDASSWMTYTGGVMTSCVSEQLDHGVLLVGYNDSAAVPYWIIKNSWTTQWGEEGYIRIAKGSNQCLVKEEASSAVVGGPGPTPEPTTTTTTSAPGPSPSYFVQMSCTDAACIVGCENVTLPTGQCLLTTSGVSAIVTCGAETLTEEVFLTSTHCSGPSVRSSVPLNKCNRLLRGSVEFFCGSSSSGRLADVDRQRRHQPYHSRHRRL
#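 Purified cruzain (1.5 nM final) was preincubated with compounds for 15 min at room temperature in 100 mM sodium acetate pH 5.5, 5 mM DTT, 0.01% Triton X-100. Reaction started with 2 uM Z-FR-AMC; AMC fluorescence change over 60 s gave activity.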
# Lassa entry inh: Lassa virus entry inhibition; Lassa virus pseudotype entry inhibition, cell reporter; control for the full effect not named in the record; Potency, µM (series often up to 37.9 µM), for the others: top-dose activity change, negative = inhibition, most hits filed as inhibitors; 1.2% of 300,000 active; active means well fitted inhibition curve with a large enough effect; inconclusive means small, poorly fitted or top-dose-only effect, or effect the other way; inactive means flat fitted curve, though single readings scatter; tested in HEK293 cells; also: % is scaled to controls: 0 for no effect and ±100 for the full control effect; nearly all actives have a fitted effect of over 50% in size; luciferase read-out
# Cruzain noTriton: blocks cruzain activity in detergent-free assay; P25779; purified cruzain, Z-FR-AMC fluorescence, no detergent; Potency, µM, for the others: max response, negative = inhibition, usual class: inhibitors; 2.3% of 200,000 active;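 also: plate controls were enzyme without inhibitor for no effect and buffer without enzyme for full effect; nearly all actives have a fitted effect of over 40% in size; top concentration of the series not given in the record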
#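 Detergent-free condition (0.00005% Triton X-100) in acetate buffer pH 5.5 with DTT. 1.5 nM enzyme and compound were pre-mixed 15 min, then 2 uM Z-FR-AMC substrate added; reaction progress from fluorescence change between first and third reads (60 s).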
# Starred values were filed as active, the others as inactive; ? = inconclusive; . = not tested or not shown; & = joins results of further samples; [ ] = remark or other dose. Unless noted, calls follow the shape of the dose curve; as a rule, active = well fitted curve in the direction sought with a large enough effect; inconclusive = small, poorly fitted or top-dose-only effect, or another doubt; inactive = no such curve, though single readings can be large; an effect the other way counts as inactive or inconclusive. Potency is read from the fitted curve at half-maximal effect.
# Start of the data: the first three entries, to show the layout:
SMILES,SARS PLP yeast,RE007 growth inh,Marburg entry inh,NS1 inh,2A StopGo,Cruzain inh Det,Lassa entry inh,Cruzain noTriton
CCOC(=O)c1cc2c(=O)n3ccccc3nc2n(CCCOC)c1=NC(=O)c1c(-c2c(F)cccc2Cl)noc1C,.,.,?,.,16%,-0.7%,-1%[46.1 µM],-1%
O=C(CCc1ccccc1)Nc1cc(C(F)(F)F)ccc1Cl,4%,-1%,?,-16%,-8%,-5.2%,40%[14.3 µM],0%
CCOC(=O)c1cnc(-c2ccccc2)nc1N1CCOCC1,1%,-3%,-12%[46.1 µM],.,0%,.,0%,.

# All compounds of this part, from the start:
SMILES,SARS PLP yeast,RE007 growth inh,Marburg entry inh,NS1 inh,2A StopGo,Cruzain inh Det,Lassa entry inh,Cruzain noTriton
CCOC(=O)c1cc2c(=O)n3ccccc3nc2n(CCCOC)c1=NC(=O)c1c(-c2c(F)cccc2Cl)noc1C,.,.,?,.,16%,-0.7%,-1%[46.1 µM],-1%
O=C(CCc1ccccc1)Nc1cc(C(F)(F)F)ccc1Cl,4%,-1%,?,-16%,-8%,-5.2%,40%[14.3 µM],0%
CCOC(=O)c1cnc(-c2ccccc2)nc1N1CCOCC1,1%,-3%,-12%[46.1 µM],.,0%,.,0%,.
CCOC(=O)N1CCC(NC(=O)c2ccc(CS(=O)(=O)c3ccccc3C)o2)CC1,-5%,7%,.,-9%,-10%,4.4%,.,1%
O=C(O)CN1C(=O)/C(=C\c2cc(Br)ccc2OCc2ccc([N+](=O)[O-])cc2)SC1=S,2%,10%,.,22%,-3%,.,.,.
O=C(CCC(=O)c1cccs1)NC(c1ccccc1)c1ccccc1,6%,-2%,-20%,13%,-20%,1.7%,3%,-21%
Cc1c(C(=O)N(C)c2cccc(Cl)c2)cnn1-c1ccccc1,-5%,-2%,.,-14%,0%,.,.,.
O=[N+]([O-])c1cc2ccccc2nc1-c1ccccc1,.,11%,16%[46.1 µM],.,-2%,.,?,.
CC(=O)Nc1ccc(SCC(=O)Nc2ccccc2-c2ccccc2)cc1,15%,11%,1%,-6%,?,-6.3%,2%,-6%
c1ccc(-c2nnc(C(c3ccccc3)c3ccccc3)o2)cc1,9%,3%,-6%,-2%,-22%,-7.1%,20%,-13%
O=C(NN1C(=O)C2C3C=CC(C4CC34)C2C1=O)c1ccc(Cl)cc1Cl (stereo unspecified),-1%,3%,-10%,9%,?,9.9%,25%,0%
N#Cc1cc2c(nc1SCc1ccc(Cl)cc1)CCCC2,3%,-5%,2%,8%,.,-4.7%,-16%,?
O=[N+]([O-])c1cc2cccnc2c2ncccc12,-3%,-16%,.,-5%,-20%,.,.,.
c1ccc(CCc2cccnc2)cc1,.,-1%,9%,.,5%,.,-1%,.
CCOc1ccc(C(C)=O)cc1COc1ccc(C)nc1[N+](=O)[O-],-2%,-7%,9%[46.1 µM],9%,20%,.,17%[46.1 µM],.
CCOCCC(=O)Nc1cc(Cl)ccc1OC,6%,-15%,8%,-19%,-11%,2.3%,4%,4%
CC(C)(C)c1ccc(-c2noc(CCC(=O)NCc3ccco3)n2)cc1,-5%,-7%,.,.,-8%,.,.,.
CCN(CC)S(=O)(=O)c1cc(C(=O)O)ccc1OC,0%,-5%,6%[46.1 µM],-7%,-8%,.,17%,.
O=C(CCCc1ccccc1)NCc1ccccc1Cl,7%,35%,17%[46.1 µM],-18%,34%[activator],.,4%[46.1 µM],.
COCCN1C(=O)N[C@@H](CCc2ccccc2)C(C(C)=O)=C1C,-14%,2%,5%[14.2 µM],-10%,-18%,3.0%&0.4%,-3%,-1%&7%
CCOC(=O)N1CCN(C(=O)CSc2ccc(-c3ccc(OC)cc3)nn2)CC1,0%,5%,1%[46.1 µM],.,-20%,.,.,.
Cc1ccc(CCNC(=O)Cn2cccc2)cc1,-6%,5%,1%,5%,1%,2.4%,?,-3%
CC(C)COC(=O)C1[C@H]2C(=O)N(Cc3cccs3)C[C@]23C=C[C@H]1O3 (stereo partly specified),-7%,12%,9%,5%,.,-0.8%,1%,4%
Cc1ccc2nc(NS(C)(=O)=O)sc2c1,-1%,1%,-2%[46.1 µM],2%,36%[activator],.,2%[46.1 µM],.
COc1ccc2c(c1)C(=O)Nc1cc(Cl)ccc1N2,.,16%,-19%,.,?,.,24%,.
CC1=C(C(=O)Nc2ccccc2)C(c2cccnc2)n2nc(SCc3ccccc3Cl)nc2N1 (stereo unspecified),.,.,6%[46.1 µM],.,-19%,-2.5%,13%[46.1 µM],14%
CCN1CCc2nc(NC(=O)CC(c3ccccc3)c3ccccc3)sc2C1,3%,-21%,-2%,17%,-7%,0.1%,-1%,32µM*
CCOC(=O)c1cc(C)sc1NC(=O)CN1CCN(C(=O)C2CCCO2)CC1 (stereo unspecified),-2%,10%,.,-14%,?,.,.,.
Cc1csc(NC(=O)C2COc3ccccc3O2)n1 (stereo unspecified),3%,-6%,4.5µM*,14%,13µM*,-9.6%,?,-12%
CCOc1ccccc1N1CCN(C(=O)COc2ccc3c(C)cc(=O)oc3c2)CC1,1%,5%,?,-4%,-23%,.,-5%[46.1 µM],.
Cc1cccc(-c2nnn3c2nc(NCCC(C)C)c2ccccc23)c1,.,.,8%[46.1 µM],.,0%,0.6%,19%[46.1 µM],-2%
Cc1ccc(CSc2nnc(-c3ccccc3N)c(=O)[nH]2)cc1,-23%,?,1%,11µM*,17%,-6.6%,1%,2%
CCn1cc(S(=O)(=O)CC(=O)Nc2cc(C)on2)c2ccccc21,-2%,23%,-23%,2%,-23%,2.1%,3%,0%
CC(C)C1Nc2ccc(C(=O)N3CCN(c4ccccn4)CC3)cc2NC1=O (stereo unspecified),1%,-2%,21%[46.1 µM],-10%,-25%,.,9%[46.1 µM],.
O=c1[nH]nc(SCc2cc(Cl)ccc2Cl)c(=O)[nH]1,-1%,13%,9%,-4%,-12%,.,2%,.
Cc1ccc(NC(=O)CSC(N)=O)cc1Cl,0%,12%,12%,-48%,-23%,-12%,-13%,-10%
CCCCNC(=O)c1ccccc1SCc1c(C)noc1C,-1%,-2%,1%[46.1 µM],4%,3%,.,8%[46.1 µM],.
Cc1ccc(-n2c(=O)c3c(c4cc(C)ccc4n3C)n(CC(=O)Nc3ccc(F)cc3)c2=O)cc1,.,.,.,.,-1%,-1.6%,-6%[46.1 µM],13%
O=C(N/N=C/c1ccc(Br)cc1)c1cc[n+]([O-])cc1,8%,-7%,0%[46.1 µM],-2%,3%,.,4%,.
Cn1c(CCNC(=O)c2ccccc2)nc2cc(NC(=O)c3ccco3)ccc21,6%,0%,-16%,-12%,32%[activator],-2.7%,10%,-8%
c1cc2c(cc1CN1CCOCC1)OCO2,-3%,1%,-4%,-1%,.,5.2%,3%,-8%
Cn1ccsc1=NC(=O)c1ccc(S(C)(=O)=O)c([N+](=O)[O-])c1,-4%,3%,?,-1%,?,.,?,.
CC(=O)N1CCN(C(=O)c2ccc(-c3cccc(C(F)(F)F)c3)o2)CC1,-6%,-26%,21%,.,-11%,.,1%,.
NC(=O)c1ccc(C(F)(F)F)cn1,-1%,-3%,3%,6%,-1%,.,20%[46.1 µM],.
CCCCNC(=O)CSc1nc2cc3c(cc2c(=O)n1Cc1ccco1)OCO3,0%,-4%,-27%,.,?,.,-6%,.
O=C1CC(c2cccc(O)c2)c2cc3c(cc2N1)OCO3 (stereo unspecified),.,.,-14%[46.1 µM],.,-10%,-0.8%,-18%[46.1 µM],7%
CN1CCN(Cc2nc3c(c(=O)[nH]c(=O)n3C)n2CCc2ccccc2)CC1,9%,9%,.,-5%,0%,-0.2%,.,-9%
CCCc1nn2cc(-c3ccc(C)c(C)c3)nc2s1,.,.,-8%[46.1 µM],.,-77%,-1.5%,14%[46.1 µM],-6%
CC(C)CNC(=O)NC(=O)CSc1nc2ccccc2n1CC(C)C,6%,-2%,-27%[46.1 µM],0%,-2%,-5.1%,0%,19%
O=C(NN1C(=O)/C(=C/c2cccs2)SC1=S)c1ccccc1,-22%,-1%,-13%,27%,10%,-5.8%,9%,-5%
CCOC(=O)N1CCN(C(=S)NCCOC)CC1,5%,0%[3.69 µM],5%,2%,2%,-3.7%,3%,-7%
O=C(CSc1ccccc1)NCCCN1CCOCC1,1%,-8%,-15%,1%,28%,5.9%,9%,2%
C=CC(O)Cc1c(C)n[nH]c1C (stereo unspecified),-6%,11%,1%,22%,19%,2.8%,9%,-4%
Cc1ccc(C(C)C)c(OCC(=O)N2CCN(c3ncccn3)CC2)c1,-2%,-6%,?,.,-16%,.,5%,.
COc1cc(NC(=O)CSc2nc3nc(C)c(Cc4ccc(C)cc4)c(C)n3n2)cc(OC)c1OC,.,.,.,.,?,-4.2%,?,?
COCCn1c(=O)[nH]c2cc(C(=O)NCc3cccnc3)ccc2c1=O,-5%,4%,-9%,3%,-23%,-3.7%,-3%,4%
Oc1[nH]c2ccccc2c1C1=NCCCCC1,-2%,-4%,22%[46.1 µM],-33%,-6%,.,3%[46.1 µM],.
Clc1cccc(Cl)c1OCCCCN1CCCCC1,-5%,-1%,.,-4%,-4%,.,.,.
CCOc1ccccc1-c1cc(C(=O)N/N=C(\C)c2cccnc2)c2ccccc2n1,-1%,7%,5%,-2%,-3%,.,10%,.
COC(=O)c1ccc(OCC(=O)NC2CCCCCCC2)cc1,-6%,-4%,3%[46.1 µM],.,-10%,.,19%[46.1 µM],.
O=C(CCN1C(=O)c2ccccc2C1=O)Nc1sc2c(c1C(=O)NCC1CCCO1)CCC2 (stereo unspecified),-11%,3%,22%,-2%,-12%,-7.2%,?,16%
C/C(=N/NC(=O)c1ccn(C)n1)c1ccncc1,1%,-1%,.,4%,27%,.,.,.
CCOC(=O)N1CCN(C(=O)CN(CC)S(=O)(=O)c2cc(C)ccc2OC)CC1,3%,14%,15%[46.1 µM],0%,-8%,.,16%[46.1 µM],.
